High-throughput results as filed in PubChem BioAssay.
Rce1 inhib: yeast Rce1p protease inhibitors, primary screen, biochemical, fluorescence, cell-free homogeneous. CAAX prenyl protease 2 (Saccharomyces cerevisiae (strain ATCC 204508 / S288c)), Q03530. yeast membranes, quenched prenylated peptide cleavage fluorescence. calls only. 290,000 compounds, 0.27% hits. AID 2563, 2010;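 active = fall in fluorescence gain of 50% or more versus controls, with final raw signal at or below 3038400; inconclusive = same 50% fall but final raw signal above 3038400; inactive = fall in fluorescence gain under 50%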;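 note: plate controls were neutral control wells for no effect and wells lacking membranes for full effect; tested at 10 µM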
Target sequence (Q03530 whole entry, looked up): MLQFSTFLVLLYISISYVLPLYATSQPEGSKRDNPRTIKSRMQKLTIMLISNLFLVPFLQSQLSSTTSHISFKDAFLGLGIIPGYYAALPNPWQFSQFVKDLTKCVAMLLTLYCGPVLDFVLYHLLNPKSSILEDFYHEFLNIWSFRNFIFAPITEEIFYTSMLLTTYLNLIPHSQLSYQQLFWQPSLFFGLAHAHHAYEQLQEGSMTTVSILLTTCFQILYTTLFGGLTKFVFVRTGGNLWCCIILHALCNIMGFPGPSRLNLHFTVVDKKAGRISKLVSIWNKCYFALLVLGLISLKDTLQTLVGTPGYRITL
eIF4H FP inh: human eIF4H binding inhibitors, primary screen, translation initiation inhibitor project, biochemical, uHTS, fluorescence polarization. Eukaryotic translation initiation factor 4H (Homo sapiens), Q15056. eIF4H fluorescence polarization binding assay. inhibition, % at 35 µM. 290,000 compounds, 0.94% hits;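 active = 50% or more with normal probe brightness, or confirmed in later tests; inconclusive = above 50% with abnormal brightness, or retests that disagree; inactive = below 50% or failed in later tests; about a fifth of its hits are not listed in these tables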;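 note: calls also rest on retests at 20 µM and on dose response follow-up; 0% = protein and probe with vehicle and 100% = probe without protein; strong numbers were not always called active; many hits fall short of the cut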
CSC inhib: cancer stem cell viability inhibitors, primary screen, luminescence; cancer stem cell-like cells viability; inhibition, % at 7.5 µM; 300,000 compounds, 1.1% hits;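 active = mean at 75% or more and at least half the replicates too; inconclusive = mean and replicates disagree; tested in HMLE shEcad cells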;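 note: 0% = median of negative and 100% = median of positive control wells; the first replicate is given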
Yeast UUG start: modulators of yeast start codon fidelity, primary screen, whole organism, S. cerevisiae, single point, plate reader; 350,000 compounds, 0.13% hits; AID 602363, 2012; S. cerevisiae UUG-firefly luciferase reporter, luminescence/redox ratio; activity score, % at 18.7 µM;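 active = replicate mean at a twofold rise or more, about +100% in these data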;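 note: firefly luciferase made from a UUG start codon reports start codon fidelity; reporter light over untreated wells divided by growth signal over untreated wells; some hits fall short of that in this replicate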
MT1-MMP act inh: blockers of MT1-MMP proenzyme processing, primary screen, HT1080 RFP-PRO-GFP cells, GFP/RFP fluorescence; Matrix metalloproteinase-14 (Homo sapiens), P50281; GFP/RFP ratio fluorescence, overnight; percent of plate control window, DMSO zero; GFP/RFP ratio change, % at 20 µM; 360,000 compounds, 0.061% hits;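 active = GFP/RFP ratio change of at least 30% with cell ATP level not reduced by more than half and red fluorescence within 50% of control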; note: strong numbers were not always called active
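Assay system – RFP-PRO-GFP reporter HT1080 cells · Compound dosing – single dose of 20 µM compound, 1% DMSO final · Incubation – overnight compound exposure at 37 °C · Measure – GFP/RFP fluorescence ratio · Benchmarks – DMSO wells and RFP-L50D-GFP cells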
PABP polyA inh: PABP poly(A) RNA binding inhibitors, primary screen, biochemical, fluorescence polarization, uHTS | Polyadenylate-binding protein 1 (Homo sapiens), P11940 | inhibition, % at 35 µM | 290,000 compounds, 1% hits | AID 2014, 2009;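 active = 50% or more with normal probe brightness, or confirmed in later tests; inconclusive = above 50% with abnormal brightness, or retests that disagree; inactive = below 50% or failed in later tests; about a fifth of its hits are not listed in these tables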;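 note: calls also rest on retests at 20 µM and on dose response follow-up; controls were probe without protein and protein plus probe with vehicle; some compounds called inactive have numbers as strong as hits; many hits fall short of the cut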
Target sequence (P11940 whole entry, looked up): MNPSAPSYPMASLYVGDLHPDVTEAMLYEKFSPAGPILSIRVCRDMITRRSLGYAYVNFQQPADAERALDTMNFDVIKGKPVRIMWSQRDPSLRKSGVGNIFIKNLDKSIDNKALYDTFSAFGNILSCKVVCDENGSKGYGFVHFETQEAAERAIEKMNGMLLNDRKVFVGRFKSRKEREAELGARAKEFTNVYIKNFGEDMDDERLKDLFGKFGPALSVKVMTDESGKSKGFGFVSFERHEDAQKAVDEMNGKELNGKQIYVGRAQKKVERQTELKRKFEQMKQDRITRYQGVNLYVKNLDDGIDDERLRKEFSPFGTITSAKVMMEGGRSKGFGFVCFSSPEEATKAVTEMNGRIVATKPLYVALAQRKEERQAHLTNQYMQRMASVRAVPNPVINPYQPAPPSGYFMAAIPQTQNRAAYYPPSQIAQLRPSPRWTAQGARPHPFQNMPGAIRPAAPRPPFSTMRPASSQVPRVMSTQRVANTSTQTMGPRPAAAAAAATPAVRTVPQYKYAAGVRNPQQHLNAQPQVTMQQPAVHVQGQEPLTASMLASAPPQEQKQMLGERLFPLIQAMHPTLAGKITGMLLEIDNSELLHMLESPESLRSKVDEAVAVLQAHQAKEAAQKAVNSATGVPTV
Env fusion inh: inhibitors of HIV-1 Env-driven cell-cell fusion, primary screen, HeLa-JRFL effector, CEM21 target cells, luciferase. inhibition, % at 12.3 µM. 360,000 compounds, 1.1% hits;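 active = mean replicate inhibition score of at least 50 and every replicate individually at or above 50; inconclusive = only one of the two criteria met; inactive = mean below 50 and not all replicates reaching 50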;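 note: 0% = plate neutral controls and 100% = maraviroc near 300 nM; one replicate is shown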
MT1-MMP act inh RFP: further read-out of MT1-MMP act inh, marked with its call; RFP signal change, %; measured here: RFP expression control read;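 0 = vehicle wells; hits needed this value within 50% of zero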
* marks the source's active call; other numbers are inactive results; i = inactive; ? = inconclusive; . = no result given.

SMILES | Rce1 inhib | eIF4H FP inh | CSC inhib | Yeast UUG start | MT1-MMP act inh | MT1-MMP act inh RFP | PABP polyA inh | Env fusion inh
CCOC(=O)NC1(NCc2ccccc2)Oc2ccccc2O1 | i | 2 | 44 | -7 | 2 | -3 | -5 | .
CCCCn1c(N)c(N(CC(C)C)C(=O)C2CC(=O)N(c3ccc(C)cc3)C2)c(=O)[nH]c1=O (centres undefined) | i | . | -6 | . | -1 | -2 | . | 10
COC(=O)c1ccc(S(N)(=O)=O)o1 | i | -7 | . | -22 | 5 | 8 | 26 | -1
COc1ccc(N(CC(=O)N/N=C/c2ccccc2F)S(=O)(=O)c2ccccc2)cc1 | i | -9 | -3 | 1 | -4 | -2 | 5 | -7
CCOc1ccc(NC(=O)CN(C)C(=O)c2cc(-c3ccc(OC)cc3)nc3ccccc23)cc1OCC | i | . | -8 | . | -10 | 0 | . | 20
C#CCOCCOCCOCCNc1nc(N2CCN(C(=O)[C@H](CCCN=C(N)N)n3cc(C(N)[C@@H](C)CC)nn3)CC2)nc(N2CCN(C(=O)[C@H](CCCCN)n3cc([C@@H](N)[C@H](C)CC)nn3)CC2)n1 (some centres undefined) | . | . | -3 | 22 | -2 | 4 | . | -9
CCCNC(=O)Cn1cnc2sc(C(=O)NCCN(CC)CC)c(C)c2c1=O | i | -5 | -5 | -18 | 3 | 2 | 5 | .
CCc1ccc(OC(=O)/C=C/c2ccco2)cc1 | i | 16 | -17 | -15 | 2 | 0 | 21 | 25
CCOC(=O)c1cc(-c2cc3ccccc3o2)nc2c1c(=O)[nH]c(=O)n2CCOC | i | -11 | 3 | -24 | 2 | 5 | 2 | .
O=[N+]([O-])c1cc(S(=O)(=O)N2CCCC2)ccc1NCCc1ccccc1 | i | 21 | 22 | . | -1 | -5 | 12 | -52
CCC(=O)c1coc2ccc(O)cc12 | i | . | -12 | -15 | -1 | 2 | . | .
Cc1ccccc1NC(=O)CSc1nnc(-c2ccoc2C)n1CCc1ccccc1 | i | -2 | 15 | -1 | -12 | -19 | -8 | .
O=C(CCN1C(=O)C2CCCCC2C1=O)N1CCN(S(=O)(=O)c2ccccc2)CC1 (centres undefined) | i | . | -10 | -1 | 2 | 1 | . | -23
CC(C)(C)n1nnnc1C(c1cccnc1)N1CCN(c2ccccc2)CC1 (centres undefined) | i | -8 | -7 | . | -2 | -2 | -7 | .
CCc1ccc(NC2CC(=O)N(CCc3ccc(OC)c(OC)c3)C2=O)cc1 (centres undefined) | i | -10 | -5 | -4 | 3 | -7 | 12 | -18
O=C(C1COc2ccccc2O1)N1CCN(Cc2ccccc2)CC1 (centres undefined) | i | 0 | -14 | -10 | 5 | 2 | -6 | -18
Cc1ccc(NC(=O)COC(=O)Cn2cnc3ccccc32)cc1S(=O)(=O)N(C)C | i | -2 | 3 | . | 1 | 5 | -7 | .
O=C(Nc1nc(-c2ccc(Cl)s2)cs1)c1ccncc1 | . | 6 | 11 | -18 | 0 | -22 | 0 | .
COc1ccc(CCNS(=O)(=O)c2ccc3c(c2)CCN3C(=O)C2CC2)cc1OC | i | -9 | 2 | 10 | 0 | -6 | -3 | 24
COc1ccc(S(=O)(=O)N2CCN(C(=O)c3ccc(COc4ccccc4)o3)CC2)cc1 | . | . | . | -2 | -5 | -8 | . | 16
Cc1ccc(C)c(NC(=O)C2CCCN(S(=O)(=O)c3c(C)nn(C)c3C)C2)c1 (centres undefined) | i | -2 | -7 | 5 | 4 | 4 | -5 | -1
CCCCn1c(N)c(N(CC(C)C)C(=O)C2CCN(C(=O)c3ccc(F)cc3)CC2)c(=O)[nH]c1=O | i | -13 | 3 | -8 | -1 | 1 | -4 | -3
COC(=O)c1ccc(Nc2nc(C)cc(=O)[nH]2)cc1 | i | -2 | 7 | -9 | -4 | -1 | -7 | .
Cc1c(C(=O)N(C)CCC#N)oc2ccc(S(=O)(=O)N3CCOCC3)cc12 | i | . | -9 | -21 | 2 | 6 | . | -2
Cc1ccc(S(=O)(=O)N2CCN(CC(=O)N/N=C/C=C/c3ccccc3)CC2)cc1 | i | 1 | -13 | 12 | -3 | 1 | -13 | -1

Further results:
SMILES | Rce1 inhib | eIF4H FP inh | CSC inhib | Yeast UUG start | MT1-MMP act inh | MT1-MMP act inh RFP | PABP polyA inh | Env fusion inh
Cc1ccc(C(=O)C2=C(O)C(=O)N(Cc3ccccc3)C2c2cccnc2)o1 (centres undefined) | i | 3 | -14 | -9 | -6 | -1 | 19 | .
CCCCCC(=O)NNC(=S)NC(=O)c1cccc([N+](=O)[O-])c1 | i | 2 | -16 | -20 | 6 | 7 | -4 | -2
O=C(Cc1ccc(S(=O)(=O)N2CCCCC2)s1)Nc1ccc(F)cc1F | i | 0 | -5 | -7 | -2 | -3 | 3 | 8
Cc1cccc(OCc2nnc(SCC(=O)Nc3ncc(C)s3)o2)c1 | i | 0 | -5 | . | 1 | -2 | -4 | 0
CC(C)c1cccc(-c2ccc3c(c2)S(=O)(=O)c2cccc(C(=O)NCc4ccco4)c2C3=O)c1 | . | . | 10 | -11 | 6 | 5 | . | 2
Cc1ccc2nc(SCc3nnc(-c4ccccc4)o3)[nH]c2c1 | i | -3 | -6 | -18 | 7 | 7 | -5 | .
CCN(CC)c1ccc(C(=O)NNC(=O)CN2C(=O)NC(C)(c3ccccc3)C2=O)cc1 (centres undefined) | . | . | . | 2 | 0 | 3 | . | 10
O=C(c1ccccc1)C1CN(c2ccccc2)CC1c1ccc(Cl)cc1 (centres undefined) | i | 11 | -5 | -5 | -5 | -5 | -8 | .
O=C1Nc2ccccc2S/C1=C/NCc1ccccc1Cl | i | 2 | -2 | . | 0 | 2 | -4 | -13
O=C(CCC(=O)N1CCN(c2ccc(F)cc2)CC1)c1ccc(Cl)cc1 | i | 8 | 4 | . | 1 | 4 | 10 | 1
Cc1cnc2cc([N+](=O)[O-])ccc2n1 | i | -8 | 8 | -13 | 0 | -1 | -3 | -36
COc1ccc(C2CC(c3ccccc3)=NN2C(=O)COC(=O)COc2ccccc2)cc1 (centres undefined) | i | -6 | -22 | . | -4 | -3 | 12 | -7
COc1ccc(C(=O)/C=C/c2cn(CC(O)CN3CCN(C)CC3)c3ccccc23)cc1OC (centres undefined) | i | ? | 9 | . | -44 | -7 | ? | -14
CCCCc1c(O)nc(SCC(=O)Nc2ccc(OC)cc2)n(-c2ccc(C)c(C)c2)c1=O | . | . | . | -4 | 4 | 0 | . | -20
CC(C)CC(NC(N)=O)C(=O)OCC(=O)Nc1ccc(OC(F)F)cc1 (centres undefined) | i | -3 | -7 | . | 1 | 4 | -1 | -9
COc1ccc(-c2cc(=O)oc3cc(OC(C)C(=O)NCc4ccccn4)ccc23)cc1 (centres undefined) | i | -5 | -4 | -24 | 6 | -11 | 2 | .
Cc1ccc(S(=O)(=O)/N=C/c2ccc(N(C)C)cc2)cc1 | i | -1 | -13 | -10 | -1 | 4 | 8 | -81
CCOc1ccc(CCNC(=O)C2CC(=O)N(Cc3ccc(OC)cc3)C2)cc1OCC (centres undefined) | i | . | 3 | 11 | -3 | -2 | . | -6
CCOc1ccc2nc(SCC(=O)N(CC(C)C)c3c(N)n(CC(C)C)c(=O)[nH]c3=O)[nH]c2c1 | . | . | . | -25 | -2 | 3 | . | -3
COC(=O)c1c(NC(=O)COC(=O)c2ccc(NC(=O)CC#N)cc2)sc2c1CCCCC2 | i | 38 | 0 | . | -5 | 3 | 28 | 15
Cc1ccccc1N1CCN(S(=O)(=O)Cc2ccccc2)CC1 | i | 2 | 3 | 6 | 5 | -4 | -12 | .
Cc1ccc(/C(N)=N/OC(=O)Cc2ccccc2)cc1 | i | 3 | 22 | . | 1 | 2 | 7 | -37
Cc1nc(NC(=O)CSc2nc3cccnc3n2Cc2ccccc2)sc1C | i | -10 | . | -7 | -11 | -16 | -7 | 15
COc1ccc(Cc2nnc(SCC(=O)Nc3ccc(N4CCOCC4)cc3)n2C)cc1 | i | -2 | 6 | -41 | -1 | 2 | 4 | -7
COc1ccc(OCC(=O)NC2CCCCCCC2)cc1 | i | 3 | . | -8 | 1 | 1 | -2 | -5

(further entries)
SMILES | Rce1 inhib | eIF4H FP inh | CSC inhib | Yeast UUG start | MT1-MMP act inh | MT1-MMP act inh RFP | PABP polyA inh | Env fusion inh
Cc1nn(-c2ccccc2)c(C)c1NC(=O)CCl | i | 2 | -6 | . | 0 | 1 | -5 | .
COc1ccc(C(=O)N/C(=C\c2cccc3ccccc23)C(=O)N2CCN(C)CC2)cc1 | . | . | . | -2 | -7 | 6 | . | -6
O=C(c1cnn2c(C(F)(F)F)cc(-c3ccc4c(c3)OCO4)nc12)N1CCCCC1 | i | -3 | -6 | -23 | -6 | -7 | -4 | 9
COc1ccc(CNc2cccnc2)c(OC)c1OC | . | . | . | -8 | 0 | -2 | . | 4
O=C(NCc1ccco1)c1ccc(CS(=O)(=O)Cc2ccc(F)cc2)o1 | i | 1 | -6 | 8 | -1 | -1 | 4 | .
Cc1ccc2nc(NC(=O)CSCC(=O)OCC(=O)c3ccccc3)sc2c1 | i | -4 | 1 | -8 | -1 | 2 | -4 | 33
Cc1ccsc1/C=N/NC(=O)Cc1ccc([N+](=O)[O-])cc1 | i | . | 7 | . | 3 | -4 | . | -5
O=[N+]([O-])c1ccc(NCCCO)c(S(=O)(=O)N2CCOCC2)c1 | i | 1 | -16 | . | -1 | 3 | -1 | 0
CCCCOC(=O)CSc1nc2c(c(=O)[nH]c(=O)n2C)n1C/C=C(\C)Cl | i | 10 | . | -11 | . | . | -3 | .
CCCC(=O)C1=C(N2CCCC2)CC(C)(C)C(C(=O)OC)C1=O (centres undefined) | i | -10 | -5 | . | 2 | 2 | 11 | 2
CCC(Oc1ccc(C)cc1)C(=O)Nc1ccc(S(=O)(=O)Nc2nccs2)cc1 (centres undefined) | . | -10 | -8 | -5 | 4 | 1 | -4 | 3
COc1ccccc1Oc1ccnc2cc(Cl)ccc12 | . | -16 | -3 | -3 | -3 | -1 | -10 | 14
Cc1nn(Cc2c(Cl)cccc2Cl)c(Cl)c1/C=N/NC(=O)c1cccnc1 | i | -19 | 2 | . | -2 | -7 | -11 | -9
c1ccc(C[C@H]2CN=C(Nc3ccccc3)N2CC2CCCCC2)cc1 | . | . | 4 | -9 | 6 | 8 | . | -33
Cn1c(=N)c(S(=O)(=O)c2ccc(F)cc2)cc2c(=O)n3ccccc3nc21 | i | 0 | 7 | -10 | 0 | -2 | 11 | -24
COc1ccc(-c2noc(CCCC(=O)NC3CCCC3)n2)cc1 | i | 1 | . | 15 | -1 | -27 | 2 | 8
CC(=O)N1CCN(Cc2nc3cc(NC(=O)c4cccs4)ccc3n2C)CC1 | i | 6 | . | -13 | 5 | 6 | 19 | 0
Cc1noc(C)c1CSCC(=O)N(C)CC(=O)Nc1cccc(F)c1 | i | 18 | -17 | -19 | 5 | -2 | 49 | 14
